Tg IFNy HTS – T. gondii growth inhibition with IFN-gamma, primary screen, cell-based | 69,000 tested, 3.8% active | activity change, negative = inhibition, %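 (about 20 µM by stock and volumes)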 | Toxoplasma gondii growth in IFN-gamma-treated host cells; hits give low values; reference of the scale not given here | AID 1259416, 2018;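 active means below -70%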;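 further: host cells are HeLa cells infected with Toxoplasma gondii; parasite growth read as luciferase light; one replicate is shown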
* hit, by the source's call; i = inactive; & = joins results of further samples. Only part of the results is shown, so the mix of outcomes need not match the whole.

canonical_smiles	Tg IFNy HTS
CC(=O)n1nc(C)c2c(-c3ccccc3)c3cc(Br)ccc3nc21	28
CCCS(=O)(=O)N1CC2(CCN(c3nccs3)C2)C1	44
CN1CC2(CCN(C(=O)CCc3n[nH]c4c3CCCC4)C2)OC1=O (stereo not drawn)	-24
CCn1cc(S(=O)(=O)N2CCCC2c2ccccn2)c(C)n1 (stereo not drawn)	-18
CCc1nc(SCc2nnc(-c3ccc(C)cc3)o2)c2c(C)c(C)sc2n1	-32
OCCN1CCCn2cnc(CNc3ncccn3)c2C1	28
CN(C)Cc1ccc(C2CCCN2C(=O)COc2cccnc2)cc1 (stereo not drawn)	21
Cn1cc(CN2CCC3(CC2)CN(Cc2cccnc2)CCO3)cn1	3
Cc1nonc1C(=O)N1CCC(N2CCCC(C(=O)N3CCOCC3)C2)CC1 (stereo not drawn)	4
CCC1CCN(C(=O)c2cc(CN(C)CCc3ccccc3)on2)CC1	-8
O=S(=O)(Oc1ccccc1N1CCCCC1)c1ccc(-c2ccccn2)s1	-9
c1ccc(-c2nc(N3CCCC(N4CCOCC4)C3)c3ccccc3n2)cc1 (stereo not drawn)	-2
CCNC(=O)NCCC1CN(C2Cc3ccccc3C2)CCO1 (stereo not drawn)	3
COC(=O)c1nn(-c2ccccc2)nc1-c1nn(-c2ccccc2)nc1C(=O)OC	8
O=C(Nc1ccccc1N1CCOCC1)NC1CCN(C(=O)OCc2ccccc2)CC1	-87*
COc1cccc(N2CC3(CCN(C(=O)C4CC4)C3)CC2=O)c1 (stereo not drawn)	-5
CC(C)[C@@H](N)C(=O)O	3
Cn1ccnc1CN(C(=O)c1ccc(NC(=O)C2CCC2)cc1)C1CC1	88
COc1ccc2[nH]cc(CCN3CC(C(=O)Nc4ccc(C)cc4C)CC3=O)c2c1 (stereo not drawn)	243
CCOCC1CC2(COCCN2S(=O)(=O)c2ccc(OC)cc2)CO1 (stereo not drawn)	-8

Next part, overlapping the part above by 2 compounds.
canonical_smiles	Tg IFNy HTS
COc1ccc2[nH]cc(CCN3CC(C(=O)Nc4ccc(C)cc4C)CC3=O)c2c1 (stereo not drawn)	243
CCOCC1CC2(COCCN2S(=O)(=O)c2ccc(OC)cc2)CO1 (stereo not drawn)	-8
CNc1cc(CC2CCCNC2)ncn1 (stereo not drawn)	-7
Cc1ccccc1CN1CCCC12CCN(S(=O)(=O)c1ccccc1)C2 (stereo not drawn)	8
Cc1cc(-c2ccccc2CN2CCOCC2)ccc1NC(=O)c1cccnc1	-7
CN(Cc1ccc(-n2cccn2)cc1)Cc1ccc(-c2ccn[nH]2)o1	-29
Cc1nc(OCC(=O)Nc2ccc(F)cc2)c2ccccc2n1	-15
N#Cc1cccc(NC2COC3(CCN(C(=O)c4ccsc4)C3)C2)c1 (stereo not drawn)	-4
COc1ccc(CCCNC(=O)c2ccc(-c3cccc4cccnc34)nc2)cc1	-23
Cc1oc(-c2ccccc2)nc1Cn1ccn2nc(-c3ccc(Cl)cc3)cc2c1=O	29
Cc1cccc(-n2cc(CN(C)Cc3cccnc3)c(-c3cccc(F)c3)n2)c1	21
CCN(C)C(=O)c1cnc(-c2noc3cc(NCc4ccccc4)ccc23)s1	27
COc1ccccc1N1CCN(Cc2cnn3cccnc23)C(C)C1=O (stereo not drawn)	2
CC(C)CN1CC(C(=O)N2CCC(Nc3ncccn3)CC2)CC1=O (stereo not drawn)	-1
Cc1ccccc1-c1noc(-c2c(O)c3cc(F)ccc3n(C)c2=O)n1	-43
COc1ccc(Br)cc1-c1nc(Cn2nnc(C(=O)Nc3ccc(F)cc3F)c2C)c(C)o1	329
CN(C)C(=O)N1CCN(Cn2nc(-c3ccco3)n(C)c2=S)CC1	10
CCN1C(=O)CCc2cc(NC(=O)C3CCCC3)ccc21	-8
CCCNC(=O)N1C[C@H](C)[C@H](OC)CN(C)C(=O)c2ccc(NC(=O)CC)cc2OC[C@H]1C	-2
CCn1c(C2CCCNC2)nn(Cc2c(F)ccc(C)c2Cl)c1=O (stereo not drawn)	-5
CC(C)NC(=O)CSc1nnc(N)s1	40
CC(=O)Nc1ccc(C(=O)Nc2ccccc2N)cc1	16&-7
COc1cc(NC(=O)NC2Cc3ccccc3C2)cc(OC)c1	-6
O=C(C[C@@H]1C=C[C@H](NC(=O)Nc2ccccc2F)[C@@H](CO)O1)NCc1ccc(-c2ccccc2)cc1	7
CCc1ccccc1NC(=O)Cn1c(=O)cc(-c2nc(C)no2)c2ccccc21	50
COc1ccccc1-c1nc(Cn2nnc(-c3nc(-c4cccc(C)c4)no3)c2C)c(C)o1	-5
CN1CC2(CCN(C(=O)CCn3nnc4ccccc43)C2)OC1=O (stereo not drawn)	7
CC(C)OCc1ncn2c1CN(C(=O)c1ccc3ccccc3n1)CCC2	3
Cc1ccc(C(=O)Nc2cccc(C(F)(F)F)c2)cc1Nc1nc(-c2cccnc2)nc2c1cnn2C	-54
CC(C)CN1[C@@H]2CCN(C(=O)[C@H]3CCCO3)CC[C@@H]2Oc2ccccc2S1(=O)=O	-13
CC(=O)Nc1cccc(OCCCNS(=O)(=O)c2ccc(C#N)cc2)c1	44
COC(=O)Cc1cnc(NC(=O)CN2CCCCC2c2cccnc2)s1 (stereo not drawn)	3
O=C(NCCc1csc(-c2ccc(F)cc2)n1)C1CCCC1	17
COc1cccc(NC(=O)c2cncc(NS(=O)(=O)c3ccc(NC(C)=O)cc3)c2)c1	39
O=c1cc(Nc2cccc(C(F)(F)F)c2)nc[nH]1	-103*
CN1C(=O)c2cc(NC(=O)Nc3cccc(C#N)c3)ccc2OC[C@H]2O[C@@H](CC(=O)NCc3ccc(Cl)cc3)CC[C@@H]21	-5
COCCn1cnc(-c2nc(C(=O)NCCc3cccnc3)c3ccccn23)c1	129
CSCCC(NC(=O)c1cccnc1)C(=O)O (stereo not drawn)	11
O=C(O)C1C2C=CC(O2)C1C(=O)Nc1cccc(C(F)(F)F)c1 (stereo not drawn)	10
Cc1nc(-c2ccc(-n3ccnc3-c3ccccc3Cn3cccn3)cc2)n[nH]1	-14
COc1cccc(C2CCCCN2Cc2c(C)noc2C)c1 (stereo not drawn)	1
Cc1ncc2c(c1CNC(=O)/C=C/c1ccccc1)CCN(C(=O)C1Cc3ccccc3O1)C2 (stereo not drawn)	4

Next section:
Structure | Tg IFNy HTS
Cc1ccnc(C(=O)N2CCC3(CCC(COCC4CC4)N3C)CC2)c1 (stereo not drawn) | -4
CCC(=O)N1CCc2c([nH]c3ccccc23)C12C(=O)N(C)c1ccc(Br)cc12 (stereo not drawn) | 109
OC[C@@H]1[C@H](c2ccc(-c3cccc(F)c3)cc2)[C@@H]2CN(Cc3cncnc3)CCCCN12 | 10
CC(C)CNC(=O)C1CC2CN(CCc3ccccc3)CC1O2 (stereo not drawn) | 2
O=C(C1CCOCC1)N1CC2(C1)[C@@H](c1ccccc1)[C@@H](CO)N2Cc1ccccc1F | -18
Cc1cc(N2CCc3nc[nH]c3C2)nc(-c2ccccc2)n1 | 4
CC(C)=CC(=O)N1CCC(c2cc(C(C)C)n[nH]2)CC1 | 5
O=C(Cn1ccc(-c2ccccc2F)n1)Nc1ccn(Cc2ccccc2)n1 | -4
CC(C)(C)CN1CC2CN(S(=O)(=O)c3ccccc3)CC21 (stereo not drawn) | 152
COc1cc2c(cc1-c1c(-c3ccccc3)ncn1CC(N)=O)CCC2 | -2
O=C(C[C@@H]1CC[C@H](NC(=O)c2cccnc2)[C@@H](CO)O1)NCc1ccc(Cl)c(Cl)c1 | -13
Cc1cccc2[nH]nc(-c3cc(NCCN(C)C)nc4[nH]ccc34)c12 | 0
COCC(=O)N1CCCn2c(nc(CNc3ccccn3)cc2=O)C1 | 53
O=C(NCc1ccco1)C1CCCN(C(=O)Nc2ccccc2)C1 (stereo not drawn) | -8
N#CCN1C(=O)CC2(CCN(C(=O)c3ccno3)CC2)c2ccccc21 | -6
CCC(CC)C(=O)Nc1cc(Cl)ccc1OC | -3
O=C(c1cscn1)N1CC2CN(Cc3ccc(C(F)(F)F)cc3)C2C1 (stereo not drawn) | 5
COc1ccc2c(c1)NC1(CCN(C(=O)Nc3cc(C)ccc3OC)CC1)c1cccn1-2 | i
CC1CCN(C(=O)c2cc3cccnc3n(Cc3ccc(F)cc3)c2=O)CC1 | 15
CC(C)C(=O)N1CCC[C@]2(C[C@@H](OCc3ccncc3)CO2)C1 | -1
C[C@H](NC(=O)C[C@@H]1CC[C@@H]2[C@@H](COc3ccc(NC(=O)C4CCOCC4)cc3C(=O)N2C)O1)c1ccccc1 | 7
Cc1ccccc1OC1CN(C(=O)CC2C(=O)NCCN2C(C)C)C1 (stereo not drawn) | 15
CCOC(=O)c1ccccc1NC(=O)c1nc(Nc2ccc(Cl)cc2)c2ccccc2n1 | -28
Cc1nc(CN2CCOCC23CCN(CC(C)O)CC3)cs1 (stereo not drawn) | 5

17 compounds out of the list, sorted by molecular weight, smallest number first.
Structure | Tg IFNy HTS
CCC(CC)C(=O)Nc1cc(Cl)ccc1OC | -3
CC(C)=CC(=O)N1CCC(c2cc(C(C)C)n[nH]2)CC1 | 5
CC(C)(C)CN1CC2CN(S(=O)(=O)c3ccccc3)CC21 (stereo not drawn) | 152
CC(C)C(=O)N1CCC[C@]2(C[C@@H](OCc3ccncc3)CO2)C1 | -1
Cc1nc(CN2CCOCC23CCN(CC(C)O)CC3)cs1 (stereo not drawn) | 5
O=C(NCc1ccco1)C1CCCN(C(=O)Nc2ccccc2)C1 (stereo not drawn) | -8
Cc1cccc2[nH]nc(-c3cc(NCCN(C)C)nc4[nH]ccc34)c12 | 0
COCC(=O)N1CCCn2c(nc(CNc3ccccn3)cc2=O)C1 | 53
Cc1ccccc1OC1CN(C(=O)CC2C(=O)NCCN2C(C)C)C1 (stereo not drawn) | 15
COc1cc2c(cc1-c1c(-c3ccccc3)ncn1CC(N)=O)CCC2 | -2
N#CCN1C(=O)CC2(CCN(C(=O)c3ccno3)CC2)c2ccccc21 | -6
O=C(c1cscn1)N1CC2CN(Cc3ccc(C(F)(F)F)cc3)C2C1 (stereo not drawn) | 5
O=C(Cn1ccc(-c2ccccc2F)n1)Nc1ccn(Cc2ccccc2)n1 | -4
CC1CCN(C(=O)c2cc3cccnc3n(Cc3ccc(F)cc3)c2=O)CC1 | 15
COc1ccc2c(c1)NC1(CCN(C(=O)Nc3cc(C)ccc3OC)CC1)c1cccn1-2 | i
O=C(C[C@@H]1CC[C@H](NC(=O)c2cccnc2)[C@@H](CO)O1)NCc1ccc(Cl)c(Cl)c1 | -13
C[C@H](NC(=O)C[C@@H]1CC[C@@H]2[C@@H](COc3ccc(NC(=O)C4CCOCC4)cc3C(=O)N2C)O1)c1ccccc1 | 7

The list continues.
Structure | Tg IFNy HTS
COC(=O)c1[nH]ncc1CN1CCCC(OCc2ccccn2)C1 (stereo not drawn) | 2
c1csc(-c2cc(NC3CCNCC3)nc3[nH]ccc23)n1 | -56
Cc1ccc(C(=O)N2CCC3(CC2)CC(Oc2cccnc2)C3)cc1 | -19
Cc1cnc(N(C)Cc2n[nH]c3c2CCCC3)nc1N(C)C | -21
CC(C)CS(=O)(=O)N1C[C@H]2C[C@H](C(=O)N3CCOCC3)[C@@H](C1)O2 | -11
CO[C@@H]1CN(C)C(=O)c2ccc(NC(=O)c3cccnc3)cc2OC[C@@H](C)N(CC2CCCCC2)C[C@H]1C | 144
Cc1nn(Cc2nc(-c3ccc(NC(=O)c4ccccc4F)cc3)oc2C)c(C)c1C | -69
COC(=O)c1oc2nc(C)cc(C)c2c1N | -33
c1cc(-c2cccc(-n3cccn3)c2)cc(-n2cnnc2)c1 | -2
c1ccc(Cc2n[nH]c(Cn3cncn3)n2)cc1 | -8
CN(C)Cc1noc2c1CN(C(=O)c1cnccn1)CC2 | -34
O=C(Nc1ccc(-c2ccccn2)s1)N1CCOCC1 | 39
Cc1oc(-c2cccc(C(F)(F)F)c2)nc1Cn1ccnc1C | -16
COc1ccc(N(Cc2nc(-c3ccc(C)cc3)oc2C)S(=O)(=O)c2ccccc2C)cc1 | -46
COc1ccccc1CN1[C@@H](CO)[C@@H]2c3ccccc3N(C(=O)c3cccnc3)C[C@@H]21 | 2
O=C(C1CCC1)N1C[C@@H]2[C@H](c3ccccc31)[C@H](CO)N2C(=O)Nc1cccc(F)c1 | -50
CC(C)c1ccc(NC(=O)Cn2c(=O)cc(-c3nc(C4CC4)no3)c3ccccc32)cc1 | -49
CCCNC(=O)N1CC2(C1)[C@H](c1ccccc1)[C@H](CO)N2C(=O)CC1CC1 | -7
CCN1C[C@@H](COC)[C@]2(CCN(C(=O)/C=C/c3cccs3)C2)C1 | 4
Clc1ccc(CCNc2nc(-c3nnc(-c4ccccc4)o3)nc3ccccc23)cc1 | 25
COc1ccc(S(=O)(=O)N2CCC3(CC2)Nc2ccccc2-n2cccc23)cc1Cl | 22
c1ccc(CN2CCCC(c3nnc(-c4ccncc4)o3)C2)cc1 (stereo not drawn) | -59
O=C(NC1CC1)N1C[C@@H]2OCC(=O)N(Cc3cccc(F)c3)[C@H]2C1 | -20
COc1ccc(-c2cc(C(=O)N3C[C@H]4CC[C@](O)(c5cccc(OC)c5)[C@H]4C3)no2)cc1 | -54
COc1ccc(CCNC(=O)c2nc(-c3cccc(F)c3)n3c2CCCCC3)cc1OC | -115*
CCOC(=O)C(SC(=S)Nn1cnnc1)C(C)=O (stereo not drawn) | 0
C[C@@H]1CCCCO[C@@H](CN(C)CC2CCCCC2)[C@@H](C)CN([C@@H](C)CO)C(=O)c2cc(NS(C)(=O)=O)ccc2O1 | -10
Cc1ccc(C(=O)Nc2nccnc2C(=O)N2CCC(N3CCCCC3)CC2)cc1 | -5
O=C1OCCN1C1CCN(Cc2cc3n(n2)CCNC3)CC1 | 2
Cc1ccc(C)c(S(=O)(=O)NCCc2csc(-c3ccc(Cl)cc3)n2)c1 | 26
COc1ccc2oc(=O)c(-c3csc(-c4ccc([N+](=O)[O-])cc4)n3)cc2c1 | -43
CNC(=O)CC(C)N(C)Cc1nc[nH]c1C (stereo not drawn) | 10
CN(C)C(=O)COCC1CN(c2ncccn2)Cc2nccn2C1 (stereo not drawn) | -42
Cc1nonc1CN(C)c1nc(-c2cccnc2)nc2c1CCNC2 | -13
Cc1cccc(Cn2nc(C(C)(C)C)cc2C(=O)O)c1 | -9
Cc1cc(C(=O)N(C)Cc2noc(CC(C)C)n2)nc(C)n1 | -8
